Mtb H37Rv: Mycobacterium tuberculosis H37Rv growth inhibition, putative kinase inhibitor library, confirmatory dose response (AID 2842); inhibition, % at 10 µg/mL; hits with a dose series show IC90 in µg/mL; 5.2% of 24,000 active; M. tuberculosis H37Rv growth inhibition; higher % means a stronger effect; some inactives read as strong as hits;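 active = confirmed in a dose series; about a fifth of its hits are not listed in these tables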;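 note: bacteria incubated one week before Alamar blue readout; 0% = bacteria only wells and 100% = bacteria with high antibiotic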
* hit, by the source's call.

structure | Mtb H37Rv
CCOc1ccc(/C=C2\SC(=S)N(CC(=O)Nc3ccc(C(=O)O)cc3)C2=O)cc1 | -1%
CCc1cccc(OCC(O)Cn2c(NC(C)CC)nc3c2c(=O)[nH]c(=O)n3C)c1 (stereo not given) | -7%
Oc1c(C(c2ccco2)N2CCN(Cc3ccccc3)CC2)sc2ncnn12 (stereo not given) | -1%
CS(=O)(=O)NCC(c1cccnc1)N1CCN(c2ccccc2F)CC1 (stereo not given) | -2%
COc1ccc(-c2nc3c(c(SCC(=O)Nc4cccc(OC)c4)n2)Cc2ccccc2O3)cc1 | 1%
Cc1nnc(SCCn2c(N3CCCC3)nc3c2c(=O)[nH]c(=O)n3C)s1 | 2%
COc1ccc(C(=O)Cn2cnc3c(nnn3-c3cccc(F)c3)c2=O)cc1 | 4%
CC(=O)N1CCc2c(sc(NC(=O)COc3ccc(Cl)cc3)c2C(N)=O)C1 | 19%
COc1ccc(C(=O)Nc2c(N)nc(SCc3cccc(C)c3)[nH]c2=O)cc1OC | 7%
COc1ccc(-c2nc3c(c(SCC(=O)Nc4cccc(OC)c4)n2)Cc2cccc(C)c2O3)cc1 | -2%
O=C(Cc1ccccc1)Nc1nnc(-c2ccccc2Cl)s1 | 7%
O=C(CSc1ccc2nnc(-c3ccccc3)n2n1)Nc1ccccc1 | -4%
COc1ccccc1NC(=O)CN1C(=O)C2(SCC(=O)N2c2ccc(F)cc2)c2cc(C)ccc21 (stereo not given) | -3%
OC(CN1CCN(c2cccc(Cl)c2)CC1)Cn1c2ccccc2c2ccccc21 (stereo not given) | 59%
COc1ccccc1NC(=O)c1oc2ccccc2c1NC(=O)c1ccc([N+](=O)[O-])cc1 | 6%
O=C(Nc1ccccc1F)c1cn(Cc2ccccc2)cc2c(=O)n(-c3ccccc3)nc1-2 | 7%
Cc1cnc(=O)[nH]c1SCc1cccc([N+](=O)[O-])c1 | 4%
Cc1ccc(-c2nnc3ccc(SCC(=O)NC4CCCCC4)nn23)cc1 | -2%
CCOc1ccc(-c2ccc(SCC(=O)Nc3cc(C)on3)nn2)cc1 | -9%
O=C1c2oc3ccc(Cl)cc3c(=O)c2C(c2cccnc2)N1CCc1ccccc1 (stereo not given) | 4%
COc1ccc(NC(=O)Cn2c(=O)n(Cc3ccco3)c(=O)c3oc4ccccc4c32)cc1OC | 10%
CCOC(=O)Cc1csc(NC(=O)c2cc(=O)c3ccccc3o2)n1 | -9%
CN1C(=O)/C(=C2\SC(=S)N(NC(=O)c3cccnc3)C2=O)c2ccccc21 | -15%
O=C(OCc1ccco1)c1cc2cc(Br)ccc2oc1=O | 16µg/mL*
O=C(NCCSc1c(-c2ccccc2)[nH]c2ccccc12)c1cc2ccccc2oc1=O | 2.7µg/mL*
COc1ccc2sc(N(Cc3ccncc3)C(=O)Cc3ccccc3)nc2c1 | -6%
CC(C)CCn1c(SCc2c(F)cccc2Cl)nc2c1c(=O)[nH]c(=O)n2C | -8%
CCOC(=O)c1nn(-c2ccc(C)cc2)c(=O)c2c(NC(C)=O)scc12 | 9%
CCSc1cccc(C(=O)Nc2nc3c(s2)C(=O)CC(C)(C)C3)c1 | 4%
Cc1ccc(S(=O)(=O)N2CCCc3ccc(NC(=O)c4ccc5c(c4)OCO5)cc32)cc1 | 1%
CCOc1ccc2c(c1)c1nnc(-c3ccc(C)cc3)c-1cn2Cc1ccccc1 | 16%
COc1cc(C2C(C(=O)c3cccs3)=C(O)C(=O)N2c2nncs2)ccc1O (stereo not given) | -16%
CCOc1cc(C(=O)NCCc2cc3c(OC)ccc(OC)c3[nH]c2=O)cc(OCC)c1OCC | 3%
Cc1cc2nc(NC(=O)c3ccc(S(=O)(=O)N4CCCC4)cc3)sc2cc1C | -4%
COc1cc(/C=N/Nc2nnc(-c3ccccc3)c(=O)[nH]2)cc(OC)c1O | 0%
Cc1nnc(SCC(=O)Nc2ccc([N+](=O)[O-])cc2)n(N)c1=O | -15%
COc1cccc2cc(-c3csc(Nc4ccccc4C)n3)c(=O)oc12 | 8%
COc1ccc(-n2c(SCC(=O)Nc3cc(C(F)(F)F)ccc3Cl)nc3c([nH]c4ccccc43)c2=O)cc1 | 4%
O=C1c2ccccc2S(=O)(=O)N1CC(O)Cn1ccc2ccccc21 (stereo not given) | 2%
CCOC(=O)c1nn(-c2ccc(C(F)(F)F)cc2)c(=O)c2c(NC(=O)c3cc(OC)c(OC)c(OC)c3)scc12 | 0%
CCOC(=O)c1cnc2ccc(Cl)cc2c1Nc1cccc(C(=O)O)c1 | 13%
Cc1nnc2ccc(-c3cccc(NC(=O)c4ccccc4F)c3)nn12 | 3%
CC(=O)c1cccc(Nc2nc(Nc3ccc(F)c(Cl)c3)nc(N3CCOCC3)n2)c1 | 8.4µg/mL*
Cc1c(Cc2ccc3c(c2)OCO3)sc(NC(=O)CCSc2ccccc2)c1C(N)=O | 6%
O=C(CCCS(=O)(=O)c1ccccc1)Nc1nc2c(Cl)c(Cl)ccc2s1 | 12%
Cc1cc(C(=O)O)n[nH]1 | -6%
C/C(=N/NC(=O)c1cc(-c2ccc(Cl)cc2)n[nH]1)c1cccc(O)c1 | 2%
Cc1cccc(NC(=O)CCCC(=O)O)n1 | 6%
O=C1CCc2cc(S(=O)(=O)NCCCc3ccccc3)cc3c2N1CC3 | 6%
Cc1nc2sc(C(c3ccccc3)N3CCN(CCO)CC3)c(O)n2n1 (stereo not given) | 1%
COc1ccc2c(c1)c(=O)c(S(=O)(=O)c1ccc(F)cc1)cn2Cc1ccc(F)cc1 | 12%
Cc1cc(OC(=O)/C=C/c2ccc3c(c2)OCO3)c([N+](=O)[O-])c(=O)[nH]1 | 2%
COc1ccc(C(=O)Nc2cc3c4c(c2)CC(=O)N4CCC3)c(OC)c1 | 19%
COc1cc(OC)cc(C(=O)NNc2nc3ccc(Cl)cc3s2)c1 | 81%
COc1ccc(CNS(=O)(=O)c2ccc(OC)cc2)cc1 | 24%
CSc1cccc(-c2nnc(NC(=O)c3ccc([N+](=O)[O-])s3)o2)c1 | 1.6µg/mL*
Nc1nc(SCC(=O)NCC2CCCO2)[nH]c(=O)c1NC(=O)c1ccco1 (stereo not given) | -11%
CC(C)(C)C(=O)Nc1c(C(=O)Nc2ccc3c(c2)OCO3)oc2ccccc12 | -6%
CCC(=O)Nc1c(C(=O)Nc2ccc(OC)cc2)oc2ccccc12 | 16%
COc1ccc(Cl)cc1NC(=O)CSc1nnc2[nH]c(=O)c(C)c(C)n12 | -11%

Additional results follow.
SMILES,Mtb H37Rv
Cc1ccc(-n2ncc3c(NNC(=O)c4ccccc4)ncnc32)cc1C,0%
COc1cc(C(=O)Nc2sc3c(c2C#N)CCCCC3)cc(OC)c1OC,9%
O=C(Cn1cnc2c(cnn2-c2ccc(F)cc2)c1=O)NCc1ccc(F)cc1,-5%
COc1ccc(-c2ccc(=O)n(CCNC(=O)c3cccc(F)c3)n2)cc1,-1%
Cc1cc(NS(=O)(=O)c2ccc(NC(=O)Nc3ccc(Cl)cc3)cc2)no1,-2%
Cc1ccc(Nc2c(Cl)c(P(=O)(OC(C)C)OC(C)C)nc3ccc(C)cc23)cc1,1%
CC1CCCN(c2nc3c(c(=O)[nH]c(=O)n3C)n2CCSc2ncccn2)C1 (stereo not given),5%
Fc1ccccc1CSc1ccc2nnc(-c3cccs3)n2n1,-9%
Cc1cc(C)cc(NC(=O)CSc2cn(Cc3cc(C)ccc3C)c3ccccc23)c1,-4%
COc1ccc(CC(=O)Nc2c(C(=O)Nc3ccc(Cl)cc3)oc3ccccc23)cc1OC,9%
O=C(CCN1C(=O)c2ccccc2S1(=O)=O)Nc1ccc(F)cc1,0%
O=C(Nc1ccc(OCc2ccccc2)cc1)c1cnc2n(c1=O)CCS2,-1%
O=C1NC(=O)c2cc(NC(=O)c3cccc4ccccc34)ccc21,-2%
COC(=O)CSc1ncnc2c1nnn2Cc1ccc(F)cc1,1.6µg/mL*
Nc1nc(SCC(=O)Nc2nc3ccccc3s2)[nH]c(=O)c1NC(=O)c1ccccc1F,-37%
N#Cc1c(N)nc(SCc2ccccc2)c(C#N)c1-c1ccc(OCc2ccccc2)cc1,4%
Cc1ccc2cc(CCNC(=O)C(C)(C)C)c(=O)[nH]c2c1C,3%
COc1ccc2nc(-c3ccc(OC)c(NC(=O)C4CC4)c3)cn2n1,2%
CCn1c2c(c(=O)[nH]c1=O)C(c1ccccc1OC)C1=C(COC1=O)N2 (stereo not given),-11%
NS(=O)(=O)c1ccccc1NC(=O)NCc1ccc(F)cc1,9%
COC(=O)c1ccc(Nc2nnc(-c3ccc(C)cc3)c(=O)[nH]2)cc1,-5%
Nc1cc(Cl)c([N+](=O)[O-])cc1OCc1ccccc1,9%
CCOC(=O)c1nn(-c2ccccc2)c(=O)c2c(NC(=O)CC(c3ccccc3)c3ccccc3)scc12,0%
CCCCCn1c(SC(C)C(C)=O)nc2c1c(=O)[nH]c(=O)n2C (stereo not given),5%
NC(=O)c1c(NC(=O)c2cc3cc([N+](=O)[O-])ccc3s2)sc2c1CCN(Cc1ccccc1)C2,4%
Cc1ccc2c(c1)c1c(n2CC(O)Cn2ccnc2)C(=O)CCC1 (stereo not given),34%
COc1ccc(N2C(=O)CC(NNC(=O)c3ccccc3)C2=O)cc1 (stereo not given),-8%
CC(C)C(C(=O)O)N1C(=O)C2C3CC(C2C1=O)C1C(c2cccnc2)c2sc(=O)[nH]c2SC31 (stereo not given),-9%
CCOC(=O)N1CCN(S(=O)(=O)c2ccc(C(=O)Nc3sc4c(c3C(N)=O)CCN(C)C4)cc2)CC1,-5%
CCC(C)Sc1nc2c([nH]c3ccccc32)c(=O)n1-c1cccc(C(F)(F)F)c1 (stereo not given),15%

A second format for some results above:
smiles: COC(=O)c1ccc(Nc2nnc(-c3ccc(C)cc3)c(=O)[nH]2)cc1
  Mtb H37Rv: -5%
smiles: Nc1cc(Cl)c([N+](=O)[O-])cc1OCc1ccccc1
  Mtb H37Rv: 9%

More results follow.
SMILES,Mtb H37Rv
Cc1ccc(C(=O)Sc2nc(-c3ccccc3)[nH]c2S(=O)(=O)c2ccc(C)cc2)cc1,3%
Cc1cccc(-c2nnc(NC(=O)CC34CC5CC(CC(C5)C3)C4)s2)c1,10%
CCOc1ccccc1-c1nc(C(N)=O)c2[nH]c(=O)n(-c3ccc(C)c(C)c3)c2n1,-8%
Cc1ccc(Cn2cc(SCC(=O)Nc3nccs3)c3ccccc32)cc1,-2%
Cc1nnc(NC(=O)CSc2cn(Cc3ccc(Br)cc3)c3ccccc23)s1,7%
O=C(Nc1ccc2c(c1)OCO2)c1oc2ccccc2c1NC(=O)C1CCCC1,-1%
Cc1ccc2cc(CCNC(=O)C3(c4ccc(Cl)cc4)CCCC3)c(=O)[nH]c2c1C,-14%
CN1C(=O)c2cccc(NC(=O)Cc3ccccc3)c2C1=O,42%
COc1ccc(CNS(=O)(=O)c2cc3c4c(c2)CCN4C(=O)CC3)cc1,7%
CN1CCN(C(CC(=O)Nc2ccccc2Br)C(=O)O)CC1 (stereo not given),1%
O=C(Nc1nnc(-c2ccco2)o1)c1nc2ccccc2s1,99%
COc1ccc(-c2csc(NC(=O)c3cc4ccccc4cc3OC)n2)cc1OC,1%
COc1ccc2cc(CCNC(=O)c3ccc(C(F)(F)F)cc3)c(=O)[nH]c2c1,0%
COc1ccc2nc(-c3ccc(C)c(NC(=O)CC4CCCC4)c3)cn2n1,-1%
CCOC(=O)c1nn(-c2ccc(C(F)(F)F)cc2)c(=O)c2c(NC(=O)C(CC)CC)scc12,5%

A draw from above in order of count of non-hydrogen atoms, high to low:
SMILES,Mtb H37Rv
CCOC(=O)c1nn(-c2ccc(C(F)(F)F)cc2)c(=O)c2c(NC(=O)C(CC)CC)scc12,5%
Cc1ccc(C(=O)Sc2nc(-c3ccccc3)[nH]c2S(=O)(=O)c2ccc(C)cc2)cc1,3%
O=C(Nc1ccc2c(c1)OCO2)c1oc2ccccc2c1NC(=O)C1CCCC1,-1%
Cc1nnc(NC(=O)CSc2cn(Cc3ccc(Br)cc3)c3ccccc23)s1,7%
COc1ccc2nc(-c3ccc(C)c(NC(=O)CC4CCCC4)c3)cn2n1,-1%
COc1ccc(CNS(=O)(=O)c2cc3c4c(c2)CCN4C(=O)CC3)cc1,7%
CN1C(=O)c2cccc(NC(=O)Cc3ccccc3)c2C1=O,42%

(continued)
SMILES,Mtb H37Rv
COC(=O)c1ccc(CSC(=S)NC2CCS(=O)(=O)C2)cc1 (stereo not given),69%
COc1ccc(CC(=O)Nc2nnc(-c3cc(OC)cc(OC)c3)o2)cc1,21%
CC1CCCN(c2nc3c(c(=O)n(C)c(=O)n3C)n2CCSc2nc3ccccc3s2)C1 (stereo not given),58%
Cn1c(=O)c2c(nc(N3CCCCCC3)n2CCSc2nc3ccccc3o2)n(C)c1=O,17%
Cc1[nH]c2ccccc2c1SCC(=O)N1CCN(c2ccccc2)CC1,14%
Cc1nnc(NC(=O)CN2CCC3(CC2)NC(=O)N(Cc2ccc(Cl)cc2)C3=O)s1,-13%
Cc1ccc(C(=O)Nc2sc3c(c2C#N)CCCC3)c(C)c1,21%
CCCCNC(=O)CCn1c(=O)oc2ccccc21,5%
Cc1nn(S(=O)(=O)c2ccccc2[N+](=O)[O-])c(C)c1Sc1ccccc1,2%
COc1ccccc1NC(=O)CSc1ccc(-c2ccc(-n3ccnc3)cc2)nn1,66%
O=c1[nH][nH]c2c1CCCC2,-5%
O=C(Nc1ccc(-c2csc(NC(=O)c3sc4ccccc4c3Cl)n2)cc1)c1sc2ccccc2c1Cl,12%
COC(=O)c1ccc(C(=O)Nc2nnc(-c3ccc(S(C)(=O)=O)cc3)o2)cc1,-7%
CCOC(=O)c1nn(-c2ccc(OC)cc2)c(=O)c2c(NC(=O)Cc3ccc(F)cc3)scc12,1%
O=C(Nc1cccc(Cl)c1)c1cccc2nc3ccccc3nc12,4.6µg/mL*

Reprinted at random: two records from the list, in no set order.
SMILES,Mtb H37Rv
CCOC(=O)c1nn(-c2ccc(OC)cc2)c(=O)c2c(NC(=O)Cc3ccc(F)cc3)scc12,1%
CCCCNC(=O)CCn1c(=O)oc2ccccc21,5%

Screening data from PubChem BioAssay.

A portion of the library (hit frequency here may not be typical).
